Assay outcomes deposited in PubChem BioAssay by several laboratories.
PABP FP inh: PABP-poly(A) binding inhibition. PABP-poly(A) RNA binding, fluorescence polarization. AID 2014. hit rate 1% among 290,000. P11940. inhibition, % at 35 µM;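 active means 50% or more with normal probe brightness, or confirmed in later tests; about a fifth of its hits are not listed in these tables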;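 further: calls also rest on retests at 20 µM and on dose response follow-up; controls were probe without protein and protein plus probe with vehicle; some compounds called inactive have numbers as strong as hits; many hits fall short of the cut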
MT1-MMP act inh: blocks activation of human MT1-MMP. P50281. HT1080 RFP-PRO-GFP cells, GFP/RFP ratio fluorescence, overnight; percent of plate control window, DMSO zero. GFP/RFP ratio change, % at 20 µM. hit rate 0.061% among 360,000. AID 651647;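 active means GFP/RFP ratio change of at least 30% with cell ATP level not reduced by more than half and red fluorescence within 50% of control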; further: strong numbers were not always called active
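Assay system: RFP-PRO-GFP reporter HT1080 cells; read-out basis: GFP/RFP fluorescence ratio; benchmarks: DMSO wells and RFP-L50D-GFP cells; doses: 20 µM single dose, 1% DMSO; schedule: overnight cell settling, then overnight compound exposure, 37 °C, 5% CO2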
HIV Env fusion: inhibitors of HIV Env-mediated cell fusion. HeLa-JRFL Env/CEM21 cell fusion, luciferase. inhibition, % at 12.3 µM. hit rate 1.1% among 360,000;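 active means mean replicate inhibition score of at least 50 and every replicate individually at or above 50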;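 further: 0% = plate neutral controls and 100% = maraviroc near 300 nM; one replicate is shown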
eIF4H inh: inhibitors of RNA binding by human eIF4H. Q15056. hit rate 0.94% among 290,000. inhibition, % at 35 µM. eIF4H fluorescence polarization binding assay;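 active means 50% or more with normal probe brightness, or confirmed in later tests; about a fifth of its hits are not listed in these tables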;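 further: calls also rest on retests at 20 µM and on dose response follow-up; 0% = protein and probe with vehicle and 100% = probe without protein; strong numbers were not always called active; many hits fall short of the cut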
UUG fidelity: modulators of start codon recognition fidelity in yeast | S. cerevisiae UUG-firefly luciferase reporter, luminescence/redox ratio | activity score, % at 18.7 µM | hit rate 0.13% among 350,000 | AID 602363;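 active means replicate mean at a twofold rise or more, about +100% in these data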;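 further: firefly luciferase made from a UUG start codon reports start codon fidelity; reporter light over untreated wells divided by growth signal over untreated wells; some hits fall short of that in this replicate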
CSC inhib: cancer stem cell inhibition; inhibition, % at 7.5 µM; cancer stem cell-like cells viability, luminescence; hit rate 1.1% among 300,000; AID 2717;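 active means mean at 75% or more and at least half the replicates too; tested in HMLE shEcad cells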;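 further: 0% = median of negative and 100% = median of positive control wells; the first replicate is given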
Rce1 inh: blocks yeast Ras-converting enzyme; Q03530; yeast membranes, quenched prenylated peptide cleavage fluorescence; calls only; hit rate 0.27% among 290,000;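 active means fall in fluorescence gain of 50% or more versus controls, with final raw signal at or below 3038400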;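 further: plate controls were neutral control wells for no effect and wells lacking membranes for full effect; tested at 10 µM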
Target sequence (Q03530 whole entry, looked up): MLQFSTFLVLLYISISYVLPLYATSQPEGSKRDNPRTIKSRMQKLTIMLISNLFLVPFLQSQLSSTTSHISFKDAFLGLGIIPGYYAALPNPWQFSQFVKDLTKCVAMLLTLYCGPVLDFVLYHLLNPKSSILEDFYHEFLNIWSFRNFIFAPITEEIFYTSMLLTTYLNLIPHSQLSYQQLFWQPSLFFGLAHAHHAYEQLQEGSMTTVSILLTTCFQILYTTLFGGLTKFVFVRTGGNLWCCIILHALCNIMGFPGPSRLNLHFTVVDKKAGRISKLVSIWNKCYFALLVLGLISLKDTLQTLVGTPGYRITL
eIF4H inh retest: second read-out of eIF4H inh, no call of its own (marks repeat the call); inhibition, %; compound at 20 µM; confirmation average;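 mean of two retest wells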
PABP FP inh retest: also measured in PABP FP inh; calls as there; inhibition, %; compound at 20 µM; confirmation repeats;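 mean of two retest wells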
MT1-MMP act inh RFP: recorded beside MT1-MMP act inh, whose call it bears; RFP signal change, %; measured here: RFP expression control read;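 0 = vehicle wells; hits needed this value within 50% of zero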
Starred values were filed as active, the others as inactive; i = inactive; . = no result given; & = joins results of further samples.

Start of the listing, in advance (2 entries):
SMILES	PABP FP inh	MT1-MMP act inh	MT1-MMP act inh RFP	HIV Env fusion	eIF4H inh	UUG fidelity	CSC inhib	Rce1 inh	others
CCn1c(SCC(=O)c2ccccc2)nnc1-c1ccoc1C	7	-5	1	-157	-6	-14	-6	i
O=C(C1CCCCN1S(=O)(=O)c1ccccc1)N1CCN(Cc2ccccc2)CC1 (centres undefined)	2	-8	-3	8	-1	4	1	i

This part in full, previewed entries included:
SMILES	PABP FP inh	MT1-MMP act inh	MT1-MMP act inh RFP	HIV Env fusion	eIF4H inh	UUG fidelity	CSC inhib	Rce1 inh	others
CCn1c(SCC(=O)c2ccccc2)nnc1-c1ccoc1C	7	-5	1	-157	-6	-14	-6	i
O=C(C1CCCCN1S(=O)(=O)c1ccccc1)N1CCN(Cc2ccccc2)CC1 (centres undefined)	2	-8	-3	8	-1	4	1	i
CC1=C(C(N)=O)C(c2cccc(O)c2)n2nc(CCCO)nc2N1 (centres undefined)	8	-1	2	13	-6	-4	-7	i
COc1cccc(-c2nc3ccccc3c(=O)n2NC(=O)c2cccnc2Cl)c1	-4	4	6	8	-3	-17	-6	i
COc1ccccc1C1N(c2ccc(F)cc2)C(=O)C2CCCN21 (centres undefined)	3	-3	1	-5	-5	11	2	i
Cc1ccc(NC(=O)CCC(=O)Nc2nnc(C3CCCCC3)s2)cc1	0	-2	2	-14	-7	.	1	i
COCCN1CN=C(Nc2nc3ccccc3s2)NC1	2	-1	0	.	-8	-10	-6	i
O=C(CCCCCn1nnc2ccccc2c1=O)N[C@H](C(=O)O)c1ccccc1	7	-7	4	15	-5	.	-19	i
CCC(C)NC(=O)/C=C/c1ccc(S(=O)(=O)NCc2ccco2)cc1 (centres undefined)	5	1	-3	9	3	-12	-12	i
COc1ccc([C@H]2C[C@@H](n3cc(-c4ccc(F)cc4)nn3)[C@H](O)CN2Cc2cccs2)cc1	.	2	5	-78	.	-19	.	.
CCN(Cc1ccccc1)C(=O)Cn1c(C(C)O)nc2ccccc21 (centres undefined)	3	-1	0	-3	-2	.	-1	i
Cc1ccnc(NC(=O)CNC(=O)C23CC4CC(CC(C4)C2)C3)c1	.	1	2	-23	.	-18	2	i
Cc1ccc(OCC(=O)Nc2ccccc2[N+](=O)[O-])c(Br)c1	9	8	-3	-103	-4	.	-7	i
O=C(Nc1ccc2oc(-c3ccncc3)nc2c1)c1ccc2c(c1)OCCO2	-18	-2	-5	-7	-32	.	.	i
O=c1[nH]c2ccccc2cc1CN(Cc1ccco1)S(=O)(=O)c1ccc(F)cc1	2	2	-10	-1	-6	-19	-5	i
Cc1cc(NC(=O)c2ccc(Cl)cc2)c(C(C)C)cc1O	-12	5	0	-59	-3	-22	-7	i
O=C(CSc1nnc(C2CC2)n1-c1ccccc1)N1CCCC1	.	0	3	-11	.	-23	11	.
COc1ccc(C(=O)N2CC3(C)CC2CC(C)(C)C3)cc1OC (centres undefined)	-2	-1	-3	.	2	13	27	i
CCOc1ccc(/C=C2/SC(=S)N(CCC(=O)Nc3ccc(C(=O)O)cc3)C2=O)cc1	-4	1	5	.	89	-25	-4	i	eIF4H inh retest=5;PABP FP inh retest=7
CCCc1cc(=O)[nH]c(SCc2ccc(F)cc2)n1	6	-2	1	-12	-2	.	-8	i
COc1cc(CCC(=O)NCCc2ccc(F)cc2)cc(OC)c1OC	4	1	-3	-25	23	-21	7	i
CN(/N=C/c1ccc(Br)o1)C1=NS(=O)(=O)c2ccccc21	9	-8	-6	7	-4	-24	3	i
O=C(Nc1ccc(C(=O)N2CCOCC2)cc1)Nc1cccc2ccccc12	-37	3	3	9	6	.	7	i
Cc1nn(CCc2nn[nH]n2)c2nc(-c3ccccc3)cc(C(F)(F)F)c12	0	0	-2	13	-2	.	7	i
O=C(COC(=O)c1ccccc1O)NCCC1=CCCCC1	-4	-2	-6	-11	-11	.	-13	i
CCC(=O)Nc1ccc(C(=O)N/N=C/c2ccccc2[N+](=O)[O-])cc1	0	1	2	-7	7	.	-10	i
COc1ccc(C)cc1NC(=O)CSc1nnnn1C1CCCC1	2	-2	-1	3	-9	-16	7	i
CN(C)S(=O)(=O)c1cccc(COC(=O)c2cnccn2)c1	21	3	-2	-24	23	0	-2	i
O=C(CCCCCN1C(=O)c2ccccc2C1=O)Nc1ccc(C(=O)O)cc1	3	4	11	-11	-6	-16	-3	i
COc1cc(/C=C2\SC(=S)N(CC(=O)O)C2=O)ccc1OC(=O)c1ccco1	13	3	45	9	-11	-9	-9	i

Quoted at random: 3 entries already listed.
SMILES	PABP FP inh	MT1-MMP act inh	MT1-MMP act inh RFP	HIV Env fusion	eIF4H inh	UUG fidelity	CSC inhib	Rce1 inh	others
Cc1nn(CCc2nn[nH]n2)c2nc(-c3ccccc3)cc(C(F)(F)F)c12	0	0	-2	13	-2	.	7	i
O=C(CCCCCN1C(=O)c2ccccc2C1=O)Nc1ccc(C(=O)O)cc1	3	4	11	-11	-6	-16	-3	i
COc1cc(CCC(=O)NCCc2ccc(F)cc2)cc(OC)c1OC	4	1	-3	-25	23	-21	7	i

(continued)
SMILES	PABP FP inh	MT1-MMP act inh	MT1-MMP act inh RFP	HIV Env fusion	eIF4H inh	UUG fidelity	CSC inhib	Rce1 inh	others
CCCN1Cc2cccc(C(=O)NCc3cccs3)c2C1=O	-4	3	-2	-87	7	-24	.	i
CC1C(=O)C(C)C(c2ccc(O)cc2)NC1c1ccc(O)cc1 (centres undefined)	8	-2	-3	-8	-3	-7	0	i
CN(C)CCCN(C(=O)COc1ccc(Cl)cc1)c1nc2c(F)cccc2s1	-2	-1	-1	4	8	.	-4	i
Cc1nnc(NC(=O)C2CCCN2C(=O)Nc2ccccc2)s1 (centres undefined)	8	-3	-5	-23	8	-9	-7	i
O=C(Cn1c(=O)n(Cc2ccco2)c(=O)c2c3c(sc21)CCCCC3)c1ccccc1	36*	-7	-8	.	74*	-9	12	i	eIF4H inh retest=67*;PABP FP inh retest=87*
COc1ccc(S(=O)(=O)N2CCCCC2)cc1-n1cnnn1	1	2	7	-38	-7	-12	0	i
O=C(CCS(=O)(=O)c1cc2c(cc1Cl)NC(=O)CO2)NCc1ccc(F)cc1	0	1	5	19	-8	-14	5	i
CCOC(=O)C1CCN(C(=O)c2cc3c(ccc4ccccc43)o2)CC1	0	0	-1	-41	-3	-6	19	i
COc1ccc(-c2csc(N(Cc3ccco3)C(=O)c3cccs3)n2)cc1	-9	-13	-11	-3	30	-11	11	i
CC1(C)CC(NC(=S)Nc2ccc([N+](=O)[O-])cc2)CC(C)(C)N1	3	2	5	11	-10	.	9	i

A draw from above in order of count of non-hydrogen atoms, smallest number first:
SMILES	PABP FP inh	MT1-MMP act inh	MT1-MMP act inh RFP	HIV Env fusion	eIF4H inh	UUG fidelity	CSC inhib	Rce1 inh	others
CC1C(=O)C(C)C(c2ccc(O)cc2)NC1c1ccc(O)cc1 (centres undefined)	8	-2	-3	-8	-3	-7	0	i
CCOC(=O)C1CCN(C(=O)c2cc3c(ccc4ccccc43)o2)CC1	0	0	-1	-41	-3	-6	19	i
CN(C)CCCN(C(=O)COc1ccc(Cl)cc1)c1nc2c(F)cccc2s1	-2	-1	-1	4	8	.	-4	i

Next part:
SMILES	PABP FP inh	MT1-MMP act inh	MT1-MMP act inh RFP	HIV Env fusion	eIF4H inh	UUG fidelity	CSC inhib	Rce1 inh	others
COc1cccc(CNc2nc3cc(-c4ccc(OC)c(OC)c4)sc3c(=O)n2C)c1	.	-2	-23	60*	.	-4	.	.
CC(C)NC(=O)N(C)C[C@H]1Oc2c(NS(=O)(=O)c3ccc(F)cc3)cccc2C(=O)N([C@H](C)CO)C[C@@H]1C	.	-1	1	-14	.	9&-7	.	.
CCC1CCc2sc(C(=O)NC3CCN(Cc4ccccc4)CC3)cc2C1 (centres undefined)	.	3	-4	28	.	4	34	i
CCCN1CCC(C(=O)NC(c2ccc(Cl)cc2)c2ccsc2)CC1 (centres undefined)	.	1	4	9	.	-18	.	.
COc1ccc(/C=C/C(=O)Nc2cc(C)nn2-c2nc3ccccc3n2Cc2cccc([N+](=O)[O-])c2)cc1	-9	-5	0	-32	5	-14	8	i
C=CCNC(=O)c1c(CSc2ccc(Cl)cc2)noc1C(=O)NCCC	.	2	-3	4	.	1	14	i
Cc1cccc(NS(=O)(=O)c2ccc3[nH]c(=O)cc(C(=O)OC(C)C(=O)Nc4ccc([N+](=O)[O-])cc4)c3c2)c1 (centres undefined)	3	0	-2	-3	2	.	-3	i
Cc1ccccc1Oc1ccccc1N	8	1	-3	4	-3	.	-26	i
Cc1cc(C)cc(-c2nnc(SCc3ccc(C(=O)O)cc3)o2)c1	4	3	-3	-8	-9	3	2	i
O=C(OCCCc1cc2ccccc2c(=O)o1)N1CCOCC1	.	2	1	-13	.	-3	-9	.
Cc1cc(C(=O)N2CCC(C)CC2)on1	-1	-5	-3	-5	4	-4	-3	i
COC1CCN(C(=O)CC2C(=O)NCCN2CC(C)(C)C)CC1 (centres undefined)	0	0	5	-3	1	.	10	i
CS(=O)(=O)c1ccccc1C(=O)Nc1ccc(-c2nc3ccccc3o2)cc1	6	5	-3	-59	-14	-9	-1	i
CCC(=O)n1nc(-c2ccc(Cl)cc2)nc1SC	29	7	-1	-94	0	-7	17	i
COC(=O)c1cscc1NC(C)=O	3	2	4	.	1	4	-19	i
Cc1ccccc1-c1nc2ccccc2[nH]1	3	3	1	.	10	-25	2	i
CCCCn1c(CNC(=O)Cc2ccccc2)nc2ccccc21	4	0	-4	-14	6	-10	-12	i
Cc1cccc(NC(=O)c2cc(S(=O)(=O)N3CCCCC3)ccc2Cl)n1	.	1	-2	-29	.	-4	.	.
Clc1ccc(OC2CCN(Cc3nc(CC4CC4)no3)CC2)cc1	3	1	-3	23	0	-9	3	i
CC(=O)N=c1sc2cc(C)ccc2n1C	6	3	0	.	-6	-25	.	i
Cc1ccc(CC(=O)OCC(=O)NC2CCCC(C)C2C)cc1C (centres undefined)	-6	-5	2	2	-12	-11	-7	i
